Compound activity (PubChem BioAssay)
CtBP-E1A inh = CtBP/E1A binding inhibition | AlphaScreen GST-E1A/His-CtBP binding, 1536-well; stronger effect = lower value; control for the full effect not named in the record | activity change, % (concentration not given with the values) | hit rate 0.49% among 340,000 | AID 651724; in the data active means activity change below about -65%; inconclusive means about -30% to -65%; inactive means above about -30%; note: % is set by controls: 0 for no effect and ±100 for the full control effect
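AlphaScreen with 125 nM GST-E1A and 125 nM His-CtBP (5X stocks) in Tris pH 8.0, 300 mM NaCl, BSA, Tween 20, TCEP. Compounds preincubated 2 h at 37 deg C, then glutathione donor/nickel acceptor beads added for 1 h at 37 deg C in dark.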
Six1-Eya2 inh = blocks human Six1 binding to Eya2. AlphaScreen GST-Six1/His-Eya2 binding, biochemical; stronger effect = lower value; control for the full effect not named in the record. activity change, % (no concentration beside the values). hit rate 0.56% among 360,000. AID 651725; in the data active = activity change below about -65%; inconclusive = about -30% to -65%; inactive = above about -30%; note: % is set by controls: 0 for no effect and ±100 for the full control effect; compound concentration not given in the record
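AlphaScreen with GST-Six1 and His-Eya2 (5X mix: 250 nM and 500 nM), glutathione donor and nickel acceptor beads; buffer 50 mM Tris pH 8.0, 300 mM NaCl, 1 mM TCEP; 1 h at 37 C in the dark.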
D2 potentiator = potentiates the human D2 dopamine receptor allosterically; potentiation, % (no concentration beside the values); DiscoveRx D2 beta-arrestin cells, luminescence, 90 min; 100% = 57 uM dopamine signal; AID 624464; P14416; hit rate 0.23% among 360,000; active = potentiation of 50% or more; inconclusive = 30% to 50%; inactive = 30% or less;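 note: compound concentration not given in the record; tested on top of an EC20 dose of dopamine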
Target sequence (P14416 whole entry, looked up): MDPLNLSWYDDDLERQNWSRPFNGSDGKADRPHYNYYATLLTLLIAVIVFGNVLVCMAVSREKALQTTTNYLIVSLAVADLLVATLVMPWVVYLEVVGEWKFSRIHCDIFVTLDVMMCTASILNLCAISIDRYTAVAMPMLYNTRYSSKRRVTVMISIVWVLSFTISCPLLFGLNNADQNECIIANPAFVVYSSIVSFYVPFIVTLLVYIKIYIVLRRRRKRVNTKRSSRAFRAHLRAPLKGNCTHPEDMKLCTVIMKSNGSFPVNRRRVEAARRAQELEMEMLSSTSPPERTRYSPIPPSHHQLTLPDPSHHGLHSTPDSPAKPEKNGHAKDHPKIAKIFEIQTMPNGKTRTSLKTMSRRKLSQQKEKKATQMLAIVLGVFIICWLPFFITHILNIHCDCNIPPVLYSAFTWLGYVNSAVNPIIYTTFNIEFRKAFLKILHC
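PathHunter D2 cells, attached overnight at 37 deg C, received compound in DMSO plus dopamine at EC20 (50 nM final) for 90 min at 37 deg C. Beta-arrestin recruitment was read as luminescence after 1 h with detection reagent at ambient temperature.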
TRPML1 ag = agonists of human TRPML1 channel; Q9GZU1; TRPML1-expressing cells, Ca2+ dye fluorescence, FDSS; host cell line not named in the record; reference of the full effect not given here; activation, % (no concentration beside the values); hit rate 0.12% among 410,000; AID 624414; in the data active = activation above about 50%; inconclusive = about 30% to 50%; inactive = below about 30%; note: 0% is about no effect; the text of the record puts the active cut at 80%
Target sequence (Q9GZU1 whole entry, looked up): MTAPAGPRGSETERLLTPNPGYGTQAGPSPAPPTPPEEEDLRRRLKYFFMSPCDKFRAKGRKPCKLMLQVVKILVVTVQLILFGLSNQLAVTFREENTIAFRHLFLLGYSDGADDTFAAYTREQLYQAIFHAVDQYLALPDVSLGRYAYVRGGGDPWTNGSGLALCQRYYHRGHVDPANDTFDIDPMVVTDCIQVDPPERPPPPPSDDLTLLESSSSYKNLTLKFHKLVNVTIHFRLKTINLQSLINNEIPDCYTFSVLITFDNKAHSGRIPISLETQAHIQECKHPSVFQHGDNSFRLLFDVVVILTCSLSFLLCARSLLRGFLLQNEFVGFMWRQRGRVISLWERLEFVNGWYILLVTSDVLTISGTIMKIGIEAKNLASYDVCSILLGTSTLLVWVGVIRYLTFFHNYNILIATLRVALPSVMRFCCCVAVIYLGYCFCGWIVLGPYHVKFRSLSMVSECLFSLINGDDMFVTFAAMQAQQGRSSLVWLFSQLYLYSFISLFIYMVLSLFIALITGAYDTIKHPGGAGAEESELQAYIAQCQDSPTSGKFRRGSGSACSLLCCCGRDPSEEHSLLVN
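Kinetic FDSS Ca2+ read in Tet-induced TRPML1-DL cells (ABD Ca8 dye plus quencher, 45-90 min RT loading): baseline, then compound, then 110 s agonist window; EC80 agonist 54-4 at 4uM final added afterwards for a 110 s antagonist window.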
PINK1 modulator = PINK1 expression modulation; hit rate 0.2% among 410,000; PINK1 immunofluorescence, high-content cytometry, 24 h; Potency, µM (highest dose often 76.6 µM), inactives show top-dose activation (PINK1 increase), hits mostly activators; AID 624263; active = well fitted activation curve with a large enough effect; inconclusive = small, poorly fitted or top-dose-only effect; inactive = flat fitted curve, though single readings scatter; cell line not stated here;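 note: potency is the fitted concentration of half-maximal effect; % of control where 0% means no effect; nearly all actives have a fitted effect of over 65% in size; a mitochondrial uncoupler was the plate control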
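Fluorescence from anti-PINK1 antibody, together with nuclear and cell stains, was scanned on a laser-scanning cytometer. Before staining, stable-line cells were incubated 24 hours with compounds at 5 concentrations; primary antibody 12 h at 10 degrees C.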
D2 ag = agonists of human D2 dopamine receptor (beta-arrestin) | P14416 | DiscoveRx PathHunter D2 beta-arrestin, luminescence, 90 min; 100% = 57 uM dopamine signal | AID 624465 | activation, % (test concentration not listed) | hit rate 0.084% among 360,000; in the data active = activation above about 40%; inconclusive = about 15% to 40%; inactive = below about 15%; note: compound concentration not given in the record; the text of the record calls up to 30% inactive
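Agonist mode: compounds alone added to overnight-plated D2 PathHunter cells for 90 min at 37 C, with 57 uM final dopamine (EC100) defining full response. Beta-arrestin recruitment detected by chemiluminescent reagent, read after 1 h at ambient temperature.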
* hit, by the source's call; ? = inconclusive; . = no result given; & = joins results of further samples; [ ] = another dose, or the depositor's remark.

SMILES	CtBP-E1A inh	Six1-Eya2 inh	D2 potentiator	TRPML1 ag	PINK1 modulator	D2 ag
CCCn1nc2ccccc2c1P(=N)(N1CCOCC1)N1CCOCC1	11	2	-4	0.4	0.0%[38.3 µM]	0.5
COc1ccc(S(=O)(=O)N2CCCCC2)cc1NC(=O)CSc1ncnc2ccccc12	-11	-15	-1	0.5	0.9%	-2.4
Cc1cccc(C(=O)N2CCN(S(=O)(=O)c3ccc4c(c3)OCCCO4)CC2)c1[N+](=O)[O-]	3	-1	-21	1.5	1.2%	-1.4
CC(=O)NCCc1ccc(S(=O)(=O)Nc2ccc(NC(=O)c3ccc(F)cc3)cc2)cc1	0	-16	-4	-0.9	15%	-0.6
CCOc1ccccc1N(CC(=O)Nc1ccccc1F)S(=O)(=O)c1ccccc1	-4	5	-1	1.6	9.3%	-4.8
O=C(/C=C\Nc1ccc2c(c1)OCO2)c1ccccn1	-15	-19	-16	-1.5	4.4%	6.7
CS(=O)(=O)/C(C#N)=C/c1cccn1S(=O)(=O)c1cccc2ccccc12	-8	-22	-4	0.9	3.1%	-5.6
O=C(CSc1n[nH]c(-c2ccncc2)n1)Nc1ccc(Cl)cc1	0	-7	-2	0.0	0.9%	0.5
CCN(CC)Cc1cc2[nH]c3c4ccc(Cl)cc4ncc3c2cc1OC	.	5&18	-20	0.6&-0.9	0.1%&-0.7%	-2.8
CN1N=C(C(=O)N2CCN(c3ccc([N+](=O)[O-])cc3)CC2)CCC1=O	4	1	-20	0.8	-0.4%	-0.9
O=C(CSc1nnc(Cc2ccccc2)o1)Nc1ccccc1	1	-1	-18	-1.3	0.6%	-5.3
CCOc1ccccc1C(=O)NC1CCN(CC(=O)Nc2cc(OC)ccc2OC)CC1	.	0	1	.	-0.9%	-1.5
COC(=O)Cn1nc(-c2ccc(C)c(S(=O)(=O)N(C)C)c2)c2ccccc2c1=O	-4	3	-5	0.7	-0.9%	1.2
CC(=O)Nc1ccc(S(=O)(=O)NCCC(=O)N2CCN(C(c3ccccc3)c3ccccc3)CC2)cc1	-3	-20	-22	1.7	-1.5%	13
COc1ccc(NC(=O)COC(=O)CCc2nc3ccccc3c(=O)[nH]2)c(OC)c1	.	-4	-4	-1.1	3.1%	-1.9
O=C(Cn1c(=O)sc2ccccc21)Nc1ccccc1	1	-20	19	-0.5	-1.7%	-1.6
COc1cccc(-c2cc3nc(-c4ccccc4)cc(N4CCN(C(=O)c5ccoc5)CC4)n3n2)c1	0	9	-3	0.0	0.6%	-2.2
O=c1cc(-c2ccc(O)cc2)oc2cc(O)c(C3OC(CO)C(O)C(O)C3O)c(O)c12 (stereo unspecified)	-9	-14	-42	.	27%	-5.6
CCOC(=O)c1ccc(NC(=O)CCNS(=O)(=O)c2cc(Br)cnc2N)cc1	-3	1	1	2.2	1.0%	3.7
CC(=O)N1CCN(C(=O)CNC(=O)c2ccc(Br)o2)CC1	5	2	-8	0.8	0.4%	-14
O=C(NCCCn1ccnc1)c1cccc(S(=O)(=O)NCc2ccccc2)c1	7	-12	-7	-0.5	1.3%	-1.3
Cc1cccnc1NC(=O)/C=C/c1ccc2c(c1)OCO2	0	-11	-13	0.2	15%	-5.7
COc1cc(/C=N/NC(=O)CCn2c3ccccc3c3ccccc32)ccc1O	-7	-7	11	0.1	-2.2%[38.3 µM]	4.6
COc1ccc(S(=O)(=O)N(C)c2ccc(C(=O)N3CCN(C)CC3)cc2)cc1	3	-11	-3	-0.2	-0.3%	-3.0
N#Cc1c2n(c3c(=O)[nH]cnc13)CCCC2	?	-29	-15	-0.2	-1.0%	-2.4
CCC(C)[C@H](NC(=O)[C@H](Cc1ccccc1)n1c(=O)[nH]c2ccccc2c1=O)C(=O)NCC1CCC(C(=O)O)CC1 (stereo partly specified)	8	8	-16	.	0.5%	7.7
COc1ccc(NC(=O)C2CCN(Cc3cnn(-c4ccccc4)c3-n3cccc3)CC2)cc1OC	-16	?	-21	0.3	-0.9%	-5.6&-3.2
Nc1ccc(S(=O)(=O)Nc2nc(-c3ccccc3)cc(-c3ccccc3)n2)cc1	-1	-2	-7	0.5	3.8%	-4.3
Cn1cccc1CC(=O)N/N=C/c1ccc([N+](=O)[O-])cc1	-24	-21	5	-0.3	0.4%	-2.3
CCN(CC(=O)NCC(=O)Nc1ccc(Br)cc1C)Cc1ccccc1	4	-4	-5	-0.4	4.3%	-1.2
O=C(COc1cccnc1[N+](=O)[O-])Nc1cccc(S(=O)(=O)N2CCCCC2)c1	0	-5	-30	1.1	0.2%	-2.0
O=S(=O)(Nc1cccc(-c2ccc(N3CCCCCC3)nn2)c1)c1ccccc1Cl	-9	-10	-9	0.7	2.3%	5.7
NS(=O)(=O)c1cccc(NC(=O)c2cccc(N3C(=O)c4ccccc4C3=O)c2)c1	3	-3	-15	1.0	2.4%	0.4
CCN1CCN(C(=O)/C=C\C(=O)O)CC1	12	5	9	-0.4	2.2%	-1.0
COc1ccc(N2CCN(C(=S)NCCc3ccccc3)CC2)cc1	-13	-13	-3	-0.8	4.6%	-1.8
COC(=O)c1ccc(C23CC4(C2)[C@H](CN(Cc2ccc(C(F)(F)F)cc2)[C@@H]4c2ccccc2)C3c2ccc(Cl)nc2)cc1 (stereo partly specified)	-5	5	-10	0.2	1.7%	1.6
O=C(c1ccccc1)N(CCN1CCOCC1)C1(C(=O)Nc2ccccc2)CCCCC1	-1	5	0	1.4	2.3%	0.0
COc1ccc(NC(=O)Cn2nnc(C(=O)Nc3ccccc3C)c2N)cc1	-2	9	-10	2.1	3.2%	-3.6
CN1CCN(C(=O)Cn2c(C(F)(F)F)nc3ccccc32)CC1	-4	-3	-11	0.9	-1.1%	-2.9
Clc1ccccc1OCc1nc(-c2ccc(Br)o2)no1	2	15	-6	2.6	3.3%	1.3

Part of the list above in order of length of the SMILES, smallest number first:
SMILES	CtBP-E1A inh	Six1-Eya2 inh	D2 potentiator	TRPML1 ag	PINK1 modulator	D2 ag
CCN1CCN(C(=O)/C=C\C(=O)O)CC1	12	5	9	-0.4	2.2%	-1.0
O=C(c1ccccc1)N(CCN1CCOCC1)C1(C(=O)Nc2ccccc2)CCCCC1	-1	5	0	1.4	2.3%	0.0
NS(=O)(=O)c1cccc(NC(=O)c2cccc(N3C(=O)c4ccccc4C3=O)c2)c1	3	-3	-15	1.0	2.4%	0.4

(listing goes on)
SMILES	CtBP-E1A inh	Six1-Eya2 inh	D2 potentiator	TRPML1 ag	PINK1 modulator	D2 ag
COc1cc(OC)c(C(=O)Nc2cccnc2)cc1OC	-3	-21	-6	-0.4	-0.7%	-7.4
C=C1C(=O)OC2C1CCC(C)C1C=CC(=O)C12C (stereo unspecified)	3	-1	-12	0.4	?	-3.1
C=CCOc1ccccc1/C=N/NC(=O)c1ccc(Cl)cc1Cl	33	-15	-17	1.6	-1.1%	-1.9
CN(C(=O)c1ccc(OC2CCN(CCc3ccccc3)CC2)cc1)C1CCCCC1	.	2	-19	0.6	-0.4%	-5.6
CCn1c(SCC#N)nc2ccccc2c1=O	0	-1	0	-0.7&0.4	-0.1%&0.1%	5.7
COc1ccc(CCNS(=O)(=O)c2cc(/C=C/C(=O)O)ccc2C)cc1OC	-2	-4	-2	-0.3	-0.6%	-0.3
CCc1nc2ccc(C(=O)N(C)CCCN(C)C)cn2c1N(C)C(=O)C1CCCCC1	0	0	-10	-0.1	-0.1%	-5.2
O=[N+]([O-])c1cc(Cl)cc(/C=N/NC(=S)Nc2cc(S(=O)(=O)N3CCOCC3)ccc2Cl)c1O	?	-21	-6	.	20%	-0.8
Cc1ccc(-c2nc3ccccn3c2Nc2ccccc2)o1	0	?	5	0.5	6.0%	2.3
O=C(COC(=O)c1ccc(CNS(=O)(=O)c2ccc(F)c(Cl)c2)cc1)NC1CCCCCCC1	-10	-5	-7	0.8	3.3%	-1.4
CCN(C(=O)COC(=O)CCCOc1ccc(Cl)cc1C)c1c(N)n(Cc2ccccc2)c(=O)[nH]c1=O	.	1	-5	1.0	1.7%	5.1
O=C(NCCC(=O)N1CCCCC1)c1ccc(Br)cc1	3	1	-2	-0.3	0.8%	-1.0
COc1cc(C(=O)O/N=C2\CCCc3c2ccc(OC)c3[N+](=O)[O-])cc(OC)c1OC	2	9	19	-0.5	4.4%	0.6
CCc1cc2c(=O)[nH]c(-c3ccccn3)nc2s1	3	-92*	-31	0.0	5.6%	-6.3
Cc1ccc(NC(=O)COc2cccnc2[N+](=O)[O-])cc1S(=O)(=O)N1CCCCC1	-11	-8	8	1.2	2.0%	5.6
CCOc1ccccc1NC(=O)C(OC(=O)c1ccc(NC(=O)CC#N)cc1)c1ccccc1 (stereo unspecified)	0	-4	-70	0.1	-3.3%	-0.7
O=C(CCS(=O)(=O)c1ccccc1)NC12CC3CC(CC(C3)C1)C2	0	5	3	-0.1	1.3%	-0.2
Cc1cccc(-n2c(C)cc(C=C3C(=O)c4ccccc4C3=O)c2C)c1	-4	-4	3	3.4	.	-1.8
C=C1C2(C(=O)NCc3ccco3)CCC(C2)C1(C)C (stereo unspecified)	0	2	-7	1.0	-0.7%	-1.8
CCOC(=O)c1c(C)sc2c1N(C(=O)CCl)c1cc(Cl)ccc1S2	4	-2	-11	0.8	-6.0%	-1.1
CN(C)CCCNC(=O)COc1ccc(Br)cc1Cl	9	5	-24	-0.8	5.7%	-4.2
Cc1[nH]c2ccccc2c1/C=C(/C#N)C(=O)NC(C)C	-8	-8	-3	0.3	-0.2%	3.1
CC(=O)Nc1sc2c(c1C(c1ccccn1)N1CCCC1)CCCC2 (stereo unspecified)	4	-15	-24	-0.5	1.8%	1.3
CCOc1ccc(N2C(=O)S/C(=C\c3ccc(O)c(OCC)c3)C2=O)cc1	-4	-1	-12	1.6	?	-5.9
O=C(NC1=NCCS1)c1cc(-c2cccs2)nc2ccccc12	1	-1	-3	0.2	14%	-0.6
O=C(Nc1ccc(N2CCOCC2)cc1)c1cccc(S(=O)(=O)N2CCC(Cc3ccccc3)CC2)c1	-24	?	7	-0.6	6.3%	-1.4
Cn1c(-c2ccccc2)cnc1NCc1cc2c(cc1[N+](=O)[O-])OCO2	2	-16	-19	0.1	9.5%	-6.9
COc1cccc(CC2(CO)CCCN(Cc3cn[nH]c3-c3ccccc3)C2)c1 (stereo unspecified)	4	-2	-8	-0.7	1.5%	-1.5
COc1ccc(NC(=O)C2CCC2)cc1S(=O)(=O)N1CCOCC1	0	2	-3	0.5	-0.7%	0.9
COc1ccc(C(=O)O/N=C(\N)c2ccccc2)c(OC)c1	.	-2	-4	0.4	-2.5%	?
Cc1cccc(NS(=O)(=O)c2cccs2)n1	4	5	11	0.6	-5.4%[38.3 µM]	1.4
C[C@H](CO)N1C[C@H](C)[C@@H](CN(C)CC2CCCCC2)Oc2c(NS(=O)(=O)c3ccc(F)cc3)cccc2C1=O	2	0	-3	-0.5	-0.4%	-0.6

By substructure, the entries above with a CF3 group.
SMILES	CtBP-E1A inh	Six1-Eya2 inh	D2 potentiator	TRPML1 ag	PINK1 modulator	D2 ag
COC(=O)c1ccc(C23CC4(C2)[C@H](CN(Cc2ccc(C(F)(F)F)cc2)[C@@H]4c2ccccc2)C3c2ccc(Cl)nc2)cc1 (stereo partly specified)	-5	5	-10	0.2	1.7%	1.6
CN1CCN(C(=O)Cn2c(C(F)(F)F)nc3ccccc32)CC1	-4	-3	-11	0.9	-1.1%	-2.9

Hits appear at their usual frequency; overall some 1.3% were active at least once.
